FGF22 binding – shifts melting point of recombinant human FGF22. Q9HCT0. recombinant FGF22 thermal shift, SYPRO orange fluorescence; percent of sucrose octasulfate shift, DMSO zero. calls only at 9.99 µM. 340,000 compounds, 1.5% hits;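 active = melting point raised past a set limit in the mean and every replicate; inconclusive = no clear call; three in four hits are not shown here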
Target sequence (Q9HCT0 whole entry, looked up): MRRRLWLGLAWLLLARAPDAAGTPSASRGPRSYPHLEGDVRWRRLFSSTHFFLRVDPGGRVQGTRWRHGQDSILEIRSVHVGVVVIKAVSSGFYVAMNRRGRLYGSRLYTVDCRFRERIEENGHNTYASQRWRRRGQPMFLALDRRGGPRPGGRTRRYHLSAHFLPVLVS
Beta apoptosis – blocks beta cell apoptosis; INS-1E cytokine-induced death, ATP luminescence, 48 h; percent of positive-control rescue, neutral wells zero; protection from apoptosis, % (no concentration beside the values); 300,000 compounds, 0.8% hits;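 active = all replicates at 75% or more, or half of them and the mean; inconclusive = half reach 75% but not the mean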;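 note: 0% = cytokine-treated negative control wells and 100% = positive control rescue; higher means more ATP so stronger rescue from cytokine killing; wells of about 40 µL received 100 nL stock; the first replicate is given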
Ecoli rRNA inh – inhibits bacterial ribosomal RNA function over humanized ribosomes; E. coli WT GFP vs humanized-ribosome RFP mutants, fluorescence, 24 h; active compounds read low; DMSO median 0, no signal -100; GFP signal change (wild-type ribosome), % (no concentration beside the values); 350,000 compounds, 1.6% hits; AID 720706;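 active = significant combined selectivity score with lowered wild-type GFP, culture density cut under 30%, mutant RFP and density less affected; inactive = any of these conditions unmet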; note: one replicate is shown; some compounds called inactive have numbers as strong as hits
ALR inh – human ALR oxidase inhibition via reduced H2O2 | inhibition, % (concentration not given with the values) | 290,000 compounds, 3.8% hits | purified ALR, DTT oxidation, H2O2 HRP-luminol luminescence | P55789;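 active = mean and each replicate at 75% or more; inconclusive = only one of the two met; inactive = neither met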;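 note: stock transfer was 7.5 nL into about 7.5 µL; 0% = neutral wells and 100% = wells with inactivated enzyme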
Target sequence (P55789 whole entry, looked up): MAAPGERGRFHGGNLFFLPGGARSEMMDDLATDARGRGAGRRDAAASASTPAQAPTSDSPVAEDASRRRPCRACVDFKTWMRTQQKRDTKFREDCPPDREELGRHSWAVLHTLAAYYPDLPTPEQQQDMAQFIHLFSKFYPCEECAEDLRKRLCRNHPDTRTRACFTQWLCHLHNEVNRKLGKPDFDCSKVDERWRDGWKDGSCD
AF4-AF9 inh – blocks AF4 peptide binding to human AF9; AlphaScreen, biotin-AF4 peptide binding to FLAG-AF9; inhibition, % at 10 µM; 350,000 compounds, 0.47% hits;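 active = every replicate reaching a set inhibition limit, whatever the replicate mean, cut at about 25% in these data; inconclusive = mean inhibition reaches that limit but some replicates miss it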;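 note: 0% = plate neutral control median and 100% = total signal loss; the record names both 10 and 1 µM as test concentration; the first replicate is given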
Target sequence (P42568 whole entry, looked up): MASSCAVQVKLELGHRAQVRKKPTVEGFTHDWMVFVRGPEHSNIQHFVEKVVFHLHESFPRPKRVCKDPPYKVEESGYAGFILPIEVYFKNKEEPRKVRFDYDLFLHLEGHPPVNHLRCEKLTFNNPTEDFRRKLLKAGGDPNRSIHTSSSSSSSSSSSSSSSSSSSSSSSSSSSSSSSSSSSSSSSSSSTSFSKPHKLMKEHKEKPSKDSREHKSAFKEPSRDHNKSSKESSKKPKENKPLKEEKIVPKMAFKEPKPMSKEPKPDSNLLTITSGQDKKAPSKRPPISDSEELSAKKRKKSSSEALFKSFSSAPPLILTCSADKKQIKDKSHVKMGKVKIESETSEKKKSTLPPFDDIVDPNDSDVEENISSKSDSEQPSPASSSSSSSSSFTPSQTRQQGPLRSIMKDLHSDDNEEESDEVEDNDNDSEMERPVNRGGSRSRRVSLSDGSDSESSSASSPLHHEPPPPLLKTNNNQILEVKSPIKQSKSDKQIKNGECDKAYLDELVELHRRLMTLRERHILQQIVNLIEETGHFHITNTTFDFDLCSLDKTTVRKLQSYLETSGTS
Calb FLC – affects C. albicans growth with fluconazole. C. albicans CaCi-2 (fluconazole-resistant clinical isolate) + fluconazole, Alamar Blue growth, 48 h. growth inhibition, % (no concentration beside the values). 300,000 compounds, 0.57% hits;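 active = most replicates above 75%; inconclusive = exactly half above 75%; inactive = most below 75%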;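 note: all wells also contain fluconazole at 8 µg/ml as a sub-toxic cotreatment; 0% = median of DMSO wells and 100% = median of geldanamycin control wells; wells of about 8 µL received 7.5 nL stock; the first replicate is given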
RanGTP-Imp inh – inhibitors of RanGTP-importin-beta interaction, primary screen, biochemical, FRET, CFP-Ran, YFP-importin-beta, homogeneous. cell-free CFP-Ran/YFP-importin-beta FRET ratio. 300,000 compounds, 1.1% hits. inhibition, % (test concentration not listed). AID 2216;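 active = most replicates above 15%; inconclusive = exactly half above 15%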;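 note: 0% = DMSO wells and 100% = Ran loaded with GDP instead of GTP; wells of about 40 µL received 100 nL stock; the first replicate is given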
T cruzi repl – blocks replication of Trypanosoma cruzi | inhibition, % (no concentration beside the values) | T. cruzi beta-gal in NIH3T3, luminescence, 90 h | 300,000 compounds, 1.4% hits;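 active = mean inhibition across valid replicates above about 55%, limit read from the data; inconclusive = mean below that limit but half or more replicates reach it; inactive = mean below it, under half of replicates reach it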;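 note: signal also drops with host cell toxicity which is not excluded here; 0% = plate median of DMSO wells and 100% = zero luminescence signal; higher percent means less beta-gal luminescence so fewer parasites; stock transfer was 50 nL into about 50 µL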
Ecoli rRNA inh OD600 – second read-out of Ecoli rRNA inh, no call of its own (marks repeat the call); OD600 change, %; measured here: OD600 growth;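 optical density of the mix in the first replicate; 0 = DMSO median and -100 = no signal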
Ecoli rRNA inh RFP – further read-out of Ecoli rRNA inh, marked with its call; RFP signal change, %; measured here: RFP humanized mutant strains;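 first replicate; 0 = DMSO median and -100 = no signal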
Starred values were filed as active, the others as inactive; i = inactive; u = inconclusive; x = no result given.

SMILES	FGF22 binding	Beta apoptosis	Ecoli rRNA inh	Ecoli rRNA inh OD600	Ecoli rRNA inh RFP	ALR inh	AF4-AF9 inh	Calb FLC	RanGTP-Imp inh	T cruzi repl
O=C(O)CN1CCN(Cc2ccc(F)cc2Cl)C1=O	x	-5	x	x	x	-8	x	-2	x	2
CC(=O)C(Sc1nn(C)c(=S)s1)C(=O)Nc1ccccc1 (stereo not drawn)	x	-18	x	x	x	27	x	-4	2.8	-2
CN1CCN(c2ccc(Cl)cc2NC(=O)/C=C/c2ccc(F)cc2)CC1	i	2	-58	-78	-20	-18	24	4	-1.5	41
COc1ccc(OC)c(-c2csc(NC(=O)c3ccccc3F)n2)c1	i	0	1	21	-0.9	-9	4.2	-13	3.2	7
CCCCC(=O)NC(=S)Nc1cccc(NC(=O)c2ccco2)c1	x	-3	x	x	x	x	x	89*	-4.9	-4
O=C(NC(=S)NCC1CCCO1)c1ccc(Cl)cc1Cl (stereo not drawn)	x	-4	x	x	x	-2	x	16	u	-22
COc1cccc(CN(C)C(=O)CNC(=O)c2ccc3c(c2)OCO3)c1OC	i	1	2	7	-1.2	-1	6.5	11	2.8	-12
CCOc1ccccc1NC(=O)NC(C)c1ccncc1 (stereo not drawn)	i	-16	12	11	-0.4	-26	-0.5	u	2.9	-18
CCN(CC)C(=S)SCC(=O)c1ccccc1	x	x	x	x	x	29	x	-3	1.4	-3
CCOC(=O)C1(Cc2cccc(OC)c2)CCN(Cc2cccn2-c2nccs2)CC1	i	15	-21	-20	1.9	6	14	-19	u	29
CCOc1ccccc1N1CCN(C(=O)/C=C/c2cccc([N+](=O)[O-])c2)CC1	x	1	x	x	x	4	x	-2	6.6	-14
Cc1ccc(N2C(=O)c3ccccc3NC2C(C)Cc2ccc3c(c2)OCO3)cc1 (stereo not drawn)	x	18	x	x	x	-2	x	-13	1.9	55*
CN1CCN(c2ccc(Cl)cc2NC(=O)CCN2C(=O)c3ccccc3C2=O)CC1	i	1	13	11	11	-4	24	-21	u	-1
CCCC(=O)Nc1c(C(=O)OCC)[nH]c2ccccc12	i	2	8	18	2.2	-4	0.4	3	-0.9	5
COc1cccc(C2NC(=S)NC3=C2CCc2ccccc23)c1 (stereo not drawn)	i	-4	4	2	-1.1	-27	-2.4	-9	-6.0	4
O=C1[C@H]2[C@@H](/C=C/c3ccccc3)N3C(=O)CN(Cc4ccccn4)C(=O)[C@@]3(Cc3ccccc3)[C@H]2C(=O)N1c1ccccc1	i	-7	3	-5	-8.4	-15	-1.5	-13	-2.1	3
CCc1ccccc1N(CC(=O)NCc1ccccc1)C(=O)CCC(=O)Nc1ccccn1	i	-2	-4	-10	1.8	-3	-0.3	-2	-3.7	15
CC1CCN(C(=O)CC(NC(N)=O)c2ccccc2Cl)CC1 (stereo not drawn)	i	5	4	3	-2.5	2	-1.6	-9	-1.2	4
O=C(NC1CCN(Cc2ccccc2)CC1)C1CCCN(S(=O)(=O)c2cccc3nonc23)C1 (stereo not drawn)	x	8	x	x	x	-10	x	-15	1.5	44
CCOC(=O)c1cccc(NC(=O)CN(c2ccc(C)cc2)S(=O)(=O)c2c(C)n[nH]c2C)c1	x	5	x	x	x	-20	x	-10	-1.7	12
CC(=O)N1C(=O)N(C)C2C1N(C)C(=O)N2C(C)=O (stereo not drawn)	x	-1	x	x	x	0	x	28	5.2	-5
OC(Cn1cncn1)(c1ccc(F)cc1)c1ccc(Cl)cc1 (stereo not drawn)	i	-1	1	3	-0.7	-1	-0.8	25	1.9	38
Cc1nn(CCC(=O)NNC(=S)Nc2ccc([N+](=O)[O-])cc2)c(C)c1[N+](=O)[O-]	i	-1	8	-6	1.1	55	2.3	0	-2.5	3
NC(=O)c1cc(S(=O)(=O)Nc2cccc(F)c2)co1	i	-3	13	10	1.5	-14	-3.9	0	u	-10
O=C(Cc1ccc(Cl)cc1)NNC(=O)c1cnccn1	x	0	x	x	x	0	x	1	0.1	-8
O=C1OC(c2ccccc2)=NC12CC2c1ccc(Cl)cc1 (stereo not drawn)	i	-6	5	5	3.7	42	1.9	13	-1.5	-19
COc1ccc(OCC(=O)NC(=S)Nc2ccc(S(=O)(=O)Nc3cc(OC)nc(OC)n3)cc2)cc1	i	-4	-4	-3	5.1	x	-0.4	6	2.0	6
CC1(c2nnc(-c3ccccc3)o2)CC(c2ccc([N+](=O)[O-])cc2)=NO1 (stereo not drawn)	x	-13	x	x	x	-5	x	-15	0.1	11
CCOC(=O)C1(Cc2ccc(OC)cc2)CCN(C(=O)CCn2cccn2)CC1	i	-5	2	5	1.5	-10	7.8	-1	-12	-9
O=C(c1ccccc1)c1ccc(NCCCn2ccnc2)c([N+](=O)[O-])c1	i	1	-12	-30	-7.9	0	11	31	-5.1	56*
COc1ccc(S(=O)(=O)N2CCOCC2)cc1NC(=O)COC(=O)c1oc2ccccc2c1C	i	-3	x	x	x	-3	2.1	x	x	x
CC1CCCC(N2CCN(C(=O)c3ccc([N+](=O)[O-])cc3)CC2)C1 (stereo not drawn)	i	-12	1	4	-2.4	-13	-2.2	-6	u	-1
COc1cccc(NC(=O)CC2COc3ccccc3O2)c1 (stereo not drawn)	x	4	-5	-7	0.8	x	x	-1	6.3	-7
COc1ccc(Cl)cc1NC(=O)CN(C)C(=O)c1ccc(N2CCCCCC2)c([N+](=O)[O-])c1	i	16	-12	-12	0.7	x	-0.6	3	u	38
CCOC(=O)/C(C#N)=C1\SS/C(=C(/C#N)C(=O)OCC)S1	x	-1	x	x	x	22	x	2	2.8	2
Cn1c(C(=O)NCCc2ccsc2)cc2c(=O)n(C)c3ccccc3c21	i	5	1	7	-0.2	x	-1.3	3	1.2	25
S=c1[nH]nc(-c2ccc(Cl)cc2Cl)n1-c1ccc2c(c1)OCCO2	i	-8	x	x	x	69	-6.6	23	-1.9	-11
CCOc1cc(C)c(S(=O)(=O)NCc2ccccn2)cc1C	i	x	1	-4	1.6	-6	-14	8	-5.3	7
COCC(=O)N1CCC(Oc2ccc(C(=O)NCCc3ccncc3)cc2)CC1	i	x	11	14	6.6	-18	-1.2	-3	1.6	-10
CCn1c(=O)c2c(nc(SCC(=O)NC3CCCC3)n2C)n(C)c1=O	i	-1	7	-3	-0.7	3	-0.3	6	1.2	-14
Cc1cccc(C(=O)NC2CCCCCCC2)c1	i	x	-7	-6	-7.4	x	-1.8	-12	-3.1	-7
O=S(=O)(c1ccc(F)cc1)N1CCN(c2ccccn2)CC1	i	x	4	0	2.1	-9	2.1	6	4.6	-10
O=C1C2CCCCN2C(=O)N1CCCCN1CCN(c2ccc([N+](=O)[O-])cc2)CC1 (stereo not drawn)	x	4	x	x	x	-40	x	-3	-0.9	15
COCCN(CCOC)S(=O)(=O)c1ccc(C(=O)Nc2ccncc2)cc1	i	-2	11	17	5.1	-13	0.9	0	2.3	-13
Cc1ccc(-c2csc3ncn(C(C)C(=O)O)c(=O)c23)cc1 (stereo not drawn)	i	-5	3	12	0.2	0	-0.3	17	-3.7	-7
CCCCc1nc(NCCN)c(C#N)c2c1CSC(C)(C)C2	x	-2	x	x	x	x	x	-10	1.1	8
CCCCNC(=O)C(=O)NCC1CCCN1S(=O)(=O)c1cccs1 (stereo not drawn)	i	-7	0	-3	1.7	-8	0.3	6	4.6	-4
C/C(=N\NC(=S)Nc1ccccc1)C1Cc2ccccc2C(=O)O1 (stereo not drawn)	i	-1	0	0	-2.9	59	5.3	16	-0.5	15
Cn1nc(C(=O)Oc2cc(=O)n(C)c3ccccc23)c2ccccc2c1=O	i	-4	16	3	0.8	x	-1.1	-8	-2.7	-15
COc1ccc(OCCSc2nc3ccccc3n2CC(=O)O)cc1	x	1	x	x	x	-18	x	4	3.2	-2
CCC1CCc2c(sc(N)c2C(N)=O)C1 (stereo not drawn)	i	-6	-7	-14	5.5	x	-3.4	1	-2.0	0
Cn1ncc2c(N3CCN(c4ccccc4F)CC3)ncnc21	x	-5	x	x	x	-1	x	u	-1.7	-22
Nc1c(C(=O)CSc2nccn2-c2cccc(F)c2)c(=O)[nH]c(=O)n1C1CC1	i	-4	1	9	-2.3	-1	0.7	x	x	x
CC(C)c1ccc(NC(=O)c2cccnc2)cc1	x	10	x	x	x	2	x	4	u	3
CCOC(=O)c1ccc(NC(=S)N(CCCN(CC)CC)Cc2ccco2)cc1	x	-18	x	x	x	-27	x	-6	-1.8	7
CCOc1ccc(-c2cc(N3C(=O)Nc4ccccc4N3O)n[nH]2)cc1	i	-1	12	13	1.1	98*	0.0	43	2.5	-24
O=C(NNS(=O)(=O)c1ccccc1F)c1cccc(S(=O)(=O)N2CCOCC2)c1	x	-1	x	x	x	22	x	32	0.6	-15
S=C(Nc1ccccc1)Nc1nc2ccccc2n1CCOc1ccc(Cl)cc1	x	53	x	x	x	14	x	92*	3.1	-29
COC(CNC(=O)c1ccc(Cn2c(=S)[nH]c3cc4c(cc3c2=O)OCO4)cc1)OC	x	2	x	x	x	50	x	-15	125*	6
COc1ccc(NC(=O)CSc2nnc3n2CCCCC3)cc1	i	-3	9	6	-0.9	-5	-4.1	0	2.1	-11
Next section
SMILES	FGF22 binding	Beta apoptosis	Ecoli rRNA inh	Ecoli rRNA inh OD600	Ecoli rRNA inh RFP	ALR inh	AF4-AF9 inh	Calb FLC	RanGTP-Imp inh	T cruzi repl
COCCN(Cc1cc2cc(C)ccc2n2nnnc12)C(=S)Nc1cccc(C)c1	i	5	10	16	-0.9	x	6.7	0	-0.8	14
CNCCC1Sc2ccccc2Oc2ccccc21 (stereo not drawn)	i	-3	19	16	-3.4	-4	1.0	-17	2.6	33
CSc1ccc(/C=C2\C(=N)N3N=C(CC(=O)N4CCCCC4)SC3=NC2=O)cc1	i	-5	13	3	1.5	96*	-1.0	-3	1.4	2
CC(C)Cn1c(N)c(C(=O)COC(=O)[C@H](C)NC(=O)c2ccccc2Cl)c(=O)n(C)c1=O	i	1	3	9	-2.7	-4	-0.6	x	3.5	2
N#Cc1cccc(NC(=O)C2SC(=Nc3ccccc3)C(C(=O)N3CCOCC3)=C2N)c1 (stereo not drawn)	i	-1	7	6	4.0	65	9.3	-3	-3.1	18
COc1ccc(NC(=O)COC(=O)CCCC2=NS(=O)(=O)c3ccccc3N2)cc1	i	-2	6	1	0.3	-3	-1.4	-15	0.6	-6
N#Cc1c(-c2ccco2)cc(C2CC2)nc1N	x	-7	x	x	x	-1	x	-15	0.1	-7

3 entries from above, as comma-separated lines.
Structure,FGF22 binding,Beta apoptosis,Ecoli rRNA inh,Ecoli rRNA inh OD600,Ecoli rRNA inh RFP,ALR inh,AF4-AF9 inh,Calb FLC,RanGTP-Imp inh,T cruzi repl
COCCN(Cc1cc2cc(C)ccc2n2nnnc12)C(=S)Nc1cccc(C)c1,i,5,10,16,-0.9,x,6.7,0,-0.8,14
CNCCC1Sc2ccccc2Oc2ccccc21 (stereo not drawn),i,-3,19,16,-3.4,-4,1.0,-17,2.6,33
CSc1ccc(/C=C2\C(=N)N3N=C(CC(=O)N4CCCCC4)SC3=NC2=O)cc1,i,-5,13,3,1.5,96*,-1.0,-3,1.4,2

Some of the compounds tested. The share of hits here may be higher or lower than overall.
